PKD1 inh – inhibitors of human PKD1 kinase. hit rate 0.056% among 200,000. inhibition, %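 (about 10 µM by stock and volumes)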. PKD1 kinase fluorescence polarization assay. Q15139;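 active = inhibition of 50% or more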;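 also: controls were vehicle for no effect and a reference inhibitor for full effect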
GALR2 ag – GALR2 (human) receptor agonism. O43603. AID 803. activation, %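 (tested at 5 µM)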. GALR2-expressing cells, agonist activation read-out. hit rate 0.48% among 140,000;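 active = above mean plus 3 SD of all compounds, about 5% in these data, not always enough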;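 also: 0% = vehicle buffer wells and 100% = reference agonist at full effect; tested in CHO reporter cells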
Target sequence (O43603 whole entry, looked up): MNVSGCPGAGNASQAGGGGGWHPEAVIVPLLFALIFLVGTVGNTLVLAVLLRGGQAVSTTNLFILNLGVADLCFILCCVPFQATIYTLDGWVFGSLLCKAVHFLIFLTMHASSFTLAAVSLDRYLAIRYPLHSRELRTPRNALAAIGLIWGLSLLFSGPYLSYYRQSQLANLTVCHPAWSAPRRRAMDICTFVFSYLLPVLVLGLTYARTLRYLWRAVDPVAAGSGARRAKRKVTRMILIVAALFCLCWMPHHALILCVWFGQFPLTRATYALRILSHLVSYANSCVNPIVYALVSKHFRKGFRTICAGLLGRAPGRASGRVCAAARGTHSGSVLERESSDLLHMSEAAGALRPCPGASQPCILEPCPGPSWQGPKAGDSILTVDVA
HSV augment – HSV replication enhancement; HSV replication augmentation in cells, fold increase; maximum fold increase; hit rate 0.005% among 220,000; AID 1956;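 active = peak rise of 1.5-fold or more in the series; inconclusive = self-fluorescent or not available for retest; tested in PC3 cells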;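 also: first round at 10 µM; read as green reporter fluorescence; hits show the peak of a series up to 25 µM; 1 = signal of infected wells without compound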
INS promoter inh – TRM-6 insulin promoter activity inhibition | hit rate 0.9% among 130,000 | TRM-6 cells (human fetal islet line), insulin promoter-eGFP reporter, imaging; reporter expression induced with tamoxifen | inhibition, % at 2 µM;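 active = inhibition above the mean plus 3 SD, with well images judged a real hit on visual review, cut at about 60% in these data, passing the limit was not always enough; inconclusive = inhibition over the cutoff but images rejected on review; inactive = inhibition not above the cutoff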
RGS16-Gao – regulators of human RGS16-Galphao interaction; O15492+P09471; bead-based flow cytometry RGS16-Galphao binding, fluorescence; actives lie on both sides; binding response (% of control), % at 10 µM; hit rate 0.38% among 220,000; AID 1441;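 active = below 25% or above 175%, edge rows of some plates excepted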;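 also: Galphao activated by GDP with aluminum fluoride before binding; 100% = wells without compound and 0% = beads without RGS; some results beyond the cut were filed as inactive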
Target sequence (O15492 whole entry, looked up): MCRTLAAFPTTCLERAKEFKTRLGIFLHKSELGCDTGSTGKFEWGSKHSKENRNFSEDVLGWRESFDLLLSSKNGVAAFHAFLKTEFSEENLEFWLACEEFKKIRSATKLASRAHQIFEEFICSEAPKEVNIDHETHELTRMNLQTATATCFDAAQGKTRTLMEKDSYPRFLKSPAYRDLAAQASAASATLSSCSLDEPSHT
Target sequence (P09471 whole entry, looked up): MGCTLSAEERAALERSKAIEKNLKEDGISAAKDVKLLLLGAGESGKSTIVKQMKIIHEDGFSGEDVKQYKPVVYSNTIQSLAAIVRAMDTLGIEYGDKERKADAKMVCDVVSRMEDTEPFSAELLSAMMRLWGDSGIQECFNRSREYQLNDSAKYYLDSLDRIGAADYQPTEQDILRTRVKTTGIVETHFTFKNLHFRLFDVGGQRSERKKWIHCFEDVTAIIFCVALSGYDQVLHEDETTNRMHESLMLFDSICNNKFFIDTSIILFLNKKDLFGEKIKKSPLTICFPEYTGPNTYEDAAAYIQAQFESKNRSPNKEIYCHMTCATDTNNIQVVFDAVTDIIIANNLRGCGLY
INS promoter inh cell count – second read-out of INS promoter inh, no call of its own (marks repeat the call); normalized cell count, %; measured here: cell count, toxicity; reference of the scale not given here;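 cells exposed to compound for 48 h; stained nuclei by imaging scaled within each plate; lower means fewer cells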
HSV augment primary fold – also measured in HSV augment; calls as there; fold increase; compound at 10 µM; measured here: primary screen fold increase 10 uM; tested in PC3 cells;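 GFP signal in the first replicate; 1 = infected wells without compound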
Numbers without * were called inactive; i = inactive; ? = inconclusive; nt = no result given.

SMILES | PKD1 inh | GALR2 ag | HSV augment | HSV augment primary fold | INS promoter inh | INS promoter inh cell count | RGS16-Gao
C#Cc1ccc([C@H]2C=C(C(=O)N3CCN(Cc4ccc5c(c4)OCO5)CC3)O[C@@H](OCc3ccc(CO)cc3)C2)cc1 | -1.3 | nt | nt | nt | nt | nt | 94.0
CCC(c1nnnn1Cc1ccco1)N1CCN(c2cc(Cl)ccc2C)CC1 (stereo unspecified) | 23.2 | 0.4 | nt | nt | nt | nt | 101.1
Cn1nc(C(F)(F)F)c2cc(C(=O)Nc3ccc(F)c(Cl)c3)sc21 | nt | nt | i | 1.03 | nt | nt | 105.0
COCCn1c(SCC(=O)Nc2ccc(N3CCOCC3)cc2)nc2ccccc21 | -5.9 | -0.8 | i | 0.99 | nt | nt | 101.5
CCOc1ccccc1CNC(=O)CCN1C(=O)COc2ccccc21 | -9.6 | 0.9 | i | 1.12 | 13.9 | 91.1 | 100.8
Cc1cccc2sc(NC(=O)C3CCCO3)nc12 (stereo unspecified) | -9.1 | 4.3 | i | 0.9 | -281.2 | 72.0 | 105.2
COC(=O)c1ccccc1NC(=O)c1ccccc1N(C)S(C)(=O)=O | -2.5 | -1.8 | i | 0.87 | -4.5 | 114.0 | 100.0
N#Cc1cc(C(=O)c2cc(Cl)ccc2O)cn(CC2CCCO2)c1=O (stereo unspecified) | -1.1 | -1.6 | i | 0.973 | nt | nt | 103.0
CN1CCC(=NNC(=O)c2cn(-c3ccccc3)nc2-c2ccccc2)CC1 | -8.2 | 0.6 | i | 1.03 | -33.3 | 110.0 | 96.7
COC(=O)c1ccc(C(=O)Nc2cc(Cl)ccc2Cl)cc1NC(=O)c1ccccc1C | -13.3 | -1.4 | i | 0.65 | -43.5 | 115.1 | 102.5
CC1(C)CC(=O)C(C2(O)C(=O)N(Cc3ccccc3)c3ccccc32)CO1 (stereo unspecified) | 4.6 | -1.6 | i | 0.73 | 57.1 | 145.0 | 129.9
Cc1cc(C)n(/N=C/c2ccccc2)c(=O)c1C#N | 7.0 | 0.5 | i | 0.72 | 50.0 | 148.9 | 117.0
Cc1ccc2nc(NC(=O)CCNS(=O)(=O)c3ccc(Br)s3)sc2c1 | -0.2 | -1.9 | i | 0.91 | nt | nt | 97.4
CCc1cc(CC)c(/C=N/NC(N)=O)c(CC)c1 | 5.1 | nt | i | 0.98 | 0.0 | 148.0 | 102.1
COc1ccc(NC(=O)c2[nH]c(C)c(C(C)=O)c2C)cc1S(=O)(=O)Nc1ccc(Br)cc1 | nt | nt | i | 0.86 | nt | nt | 98.8
COc1ccc(-c2cn[nH]c2-c2ccc(OCc3ccccc3F)cc2O)cc1OC | nt | nt | i | 0.78 | nt | nt | 94.6
Cc1cc([N+](=O)[O-])cc(C)c1OCC(=O)N/N=C/c1ccc(OC(=O)c2ccccc2)cc1 | 0.2 | 0.7 | i | 0.86 | -40.0 | 121.3 | 99.5
Cc1ncsc1C(=O)Nc1nc2c(s1)CCCC2 | 4.1 | -0.6 | i | 0.99 | nt | nt | 95.0
CCOc1ccc(CN2CCN(Cc3cc4ccccc4[nH]3)CC2CCO)cc1 (stereo unspecified) | -1.8 | nt | i | 1.1 | -38.1 | 58.1 | 107.9
Cc1nc2ccccc2n1CC(=O)OCC(=O)NC1CC1 | -1.1 | nt | i | 1.08 | nt | nt | 104.0
CC(=O)N1c2ccccc2N(Cc2ccc([N+](=O)[O-])cc2)C(=O)C1(C)C | -11.9 | -1.1 | i | 0.94 | -25.6 | 80.5 | 113.7
COc1ccc(CN2CCOCC2)c(C)c1C | -13.4 | -5.1 | i | 0.94 | -33.3 | 138.1 | 103.8
O=C(COC(=O)CCCN1C(=O)c2cccc3cccc(c23)C1=O)Nc1cccc(Br)c1 | 8.3 | 1.0 | i | 1.03 | -6.7 | 114.8 | 168.1
CCOC(=O)C(C)On1c(-c2ccccc2)nc2ccc([N+](=O)[O-])cc21 (stereo unspecified) | -1.6 | -2.1 | i | 0.88 | 28.6 | 164.5 | 101.3
COc1ccc(N2CCN(C(CNC(=O)C(C)(C)C)c3ccco3)CC2)cc1 (stereo unspecified) | 2.8 | nt | i | 0.92 | nt | nt | 98.7
Carrying on.
SMILES | PKD1 inh | GALR2 ag | HSV augment | HSV augment primary fold | INS promoter inh | INS promoter inh cell count | RGS16-Gao
CC1=NN(C(=O)Cn2ccc([N+](=O)[O-])n2)C(O)(C(F)(F)F)C1 (stereo unspecified) | 6.1 | -1.9 | i | 1.09 | -40.0 | 98.8 | 117.4
O=C(OCCN1C(=O)c2ccccc2C1=O)c1ccco1 | -4.3 | -2.1 | i | 0.82 | 58.6 | 79.3 | 112.4
CC(C)Cc1nnc(NC(=O)CCC(=O)NC2CCCc3ccccc32)s1 (stereo unspecified) | -3.1 | -0.2 | i | 1.22 | nt | nt | 91.1
COC(=O)c1scc(S(=O)(=O)C(C)C)c1N/N=C(\C#N)C(=O)c1ccc(Cl)cc1 | nt | nt | i | 1.25 | nt | nt | 98.9
CCOC(=O)C1CCCN(C(=O)C2CCC(CNS(=O)(=O)c3ccc(NC(C)=O)cc3)CC2)C1 (stereo unspecified) | -12.0 | -2.2 | i | 0.83 | -21.4 | 168.3 | 100.3
CN(C)S(=O)(=O)c1cccc(CSc2cccc[n+]2[O-])c1 | -7.1 | -1.0 | i | 0.81 | nt | nt | 102.2
CCOC(=O)CC1C(=O)NCCN1c1nc2c(C)cccn2c(=O)c1/C=C1\SC(=S)N(C(C)CC)C1=O (stereo unspecified) | nt | nt | ? | nt | nt | nt | 107.1
S=C(Nc1ccccc1Cl)N1CCC(c2ccccc2)C1 (stereo unspecified) | -1.2 | nt | i | 1 | nt | nt | 100.0
N#CC1C(C#N)N2CCCN2C1c1ccc(Br)cc1 (stereo unspecified) | nt | nt | i | 1.06 | nt | nt | 100.2
CC1(C)Cc2ccccc2-c2n[nH]c(=S)n21 | 9.2 | 0.1 | i | 0.88 | -9.1 | 92.0 | 96.3
O=S(=O)(c1ccccc1)C1(S(=O)(=O)c2ccccc2)CCCC1 | 5.8 | -1.0 | i | 0.82 | -25.0 | 99.0 | 103.2
O=C(CCC(=O)Nc1ccc(F)cc1)N/N=C/c1ccc(O)cc1O | -5.8 | nt | nt | nt | -28.6 | 104.0 | 62.0
CCCCn1c(SCC(=O)Nc2nnc(CC)s2)nc2ccccc2c1=O | -9.9 | 0.4 | i | 0.92 | -23.1 | 89.5 | 102.6
O=C(c1noc2c1CCCC2)N1CCC(CO)(Cc2ccccc2Cl)CC1 | 0.6 | nt | i | 0.94 | nt | nt | -14.9
NC(=O)c1ccc(NC(=O)COC(=O)/C=C/c2ccc3c(c2)OCO3)cc1 | nt | nt | i | 0.86 | nt | nt | 106.7
COc1ccc(/C=c2\sc3nc(-c4ccccc4OC)nn3c2=O)c(OC)c1 | -4.0 | -2.5 | i | 0.85 | nt | nt | 98.6
N#C/C(=C/c1ccc(N2CCCCC2)o1)c1cccc(F)c1 | 0.1 | -2.7 | i | 0.97 | -13.3 | 76.6 | 95.1
Cc1ccc(Cl)cc1NC(=O)CSc1nnc(C)n1-c1ccccc1 | -1.5 | 0.3 | i | 0.73 | -21.6 | 74.7 | 105.6
CCOC(=O)c1c(-c2ccccc2)csc1NC(=O)CSc1nnnn1C | -4.8 | -0.4 | i | 1.15 | nt | nt | 98.3
CS(=O)Cc1cc(Sc2ccccc2)nc(-c2ccncc2)n1 (stereo unspecified) | -1.8 | nt | i | 0.91 | 40.0 | 96.4 | 99.9
CCOC(=O)C(=O)Nc1nnc(CCc2ccccc2)s1 | -6.4 | -1.0 | i | 0.907 | 50.0 | 85.3 | 101.3
CCC(=O)Nc1nc2ccccc2n1Cc1ccccc1 | -9.4 | -1.3 | i | 0.97 | 12.5 | 41.0 | 92.2
CC(C)(C)OC(=O)NNC(=O)C12CC3CC(CC(C3)C1)C2 | -2.7 | nt | i | 0.9 | 9.1 | 128.7 | 102.0
CCCCNC(=O)c1cc2n(n1)C(C(F)(F)F)CC(c1ccccc1)N2 (stereo unspecified) | 3.2 | -1.9 | i | 0.98 | nt | nt | 110.7
COC(=O)c1ccccc1NC(=O)Nc1ccc(Br)cn1 | -0.6 | nt | i | 0.92 | 30.0 | 105.3 | 108.0

Reprinted at random: 3 compounds from above
SMILES | PKD1 inh | GALR2 ag | HSV augment | HSV augment primary fold | INS promoter inh | INS promoter inh cell count | RGS16-Gao
CC1=NN(C(=O)Cn2ccc([N+](=O)[O-])n2)C(O)(C(F)(F)F)C1 (stereo unspecified) | 6.1 | -1.9 | i | 1.09 | -40.0 | 98.8 | 117.4
O=C(OCCN1C(=O)c2ccccc2C1=O)c1ccco1 | -4.3 | -2.1 | i | 0.82 | 58.6 | 79.3 | 112.4
O=C(CCC(=O)Nc1ccc(F)cc1)N/N=C/c1ccc(O)cc1O | -5.8 | nt | nt | nt | -28.6 | 104.0 | 62.0

The main list resumes with the 2 entries that preceded the break.
SMILES | PKD1 inh | GALR2 ag | HSV augment | HSV augment primary fold | INS promoter inh | INS promoter inh cell count | RGS16-Gao
CCCCNC(=O)c1cc2n(n1)C(C(F)(F)F)CC(c1ccccc1)N2 (stereo unspecified) | 3.2 | -1.9 | i | 0.98 | nt | nt | 110.7
COC(=O)c1ccccc1NC(=O)Nc1ccc(Br)cn1 | -0.6 | nt | i | 0.92 | 30.0 | 105.3 | 108.0
CCOC(=O)C1=C(c2ccccc2)NC(=S)NC1C (stereo unspecified) | 5.6 | -1.4 | nt | nt | nt | nt | 79.9
CCOC(=O)/C(N=Nc1c(Br)cc(Br)cc1Br)=C(\C)O | -6.7 | -2.9 | i | 0.97 | 32.4 | 86.8 | 102.3
O=C(CCS(=O)(=O)Cc1ccccc1)N1CCN(c2ccc([N+](=O)[O-])cc2)CC1 | -5.7 | nt | i | 0.93 | nt | nt | 91.3
CC1CCC2(CC1)NC(=O)N(CC(=O)N1CCN(S(=O)(=O)c3ccccc3)CC1)C2=O (stereo unspecified) | 3.1 | nt | i | 0.83 | nt | nt | 100.2
O=C(O)C1C2CCC(C2)C1C(=O)NCc1ccccn1 (stereo unspecified) | 5.4 | 0.2 | i | 1.04 | nt | nt | 99.9
O=c1[nH]cnc2scc(-c3ccsc3)c12 | -7.5 | -0.7 | i | 0.99 | -21.9 | 128.2 | 111.2
CC(C)CCOCc1nc2sc3c(c2c(=O)[nH]1)CCC(C)C3 (stereo unspecified) | 2.2 | -1.9 | i | 0.79 | 21.7 | 83.7 | 97.0
O=C(/C=C/c1ccccc1)N1CCC(c2ccccc2)C1 (stereo unspecified) | -7.2 | -0.5 | i | 1.1 | -19.4 | 50.6 | 93.8
Cc1c(Cl)cccc1NC(=S)N(Cc1cccs1)C1CCCC1 | -0.1 | nt | i | 1.04 | nt | nt | 96.9
CN(C)CCCN(C(=O)c1ccc(S(=O)(=O)N(C)C)cc1)c1nc2cc3c(cc2s1)OCO3 | 7.2 | nt | i | 1.04 | 36.8 | 121.9 | 102.2
CCCS(=O)(=O)N1CCCC(C(=O)NCCCN2CCCC2=O)C1 (stereo unspecified) | 5.3 | 0.3 | i | 1 | nt | nt | 101.6
Cc1ccc(NC2=NCC(=O)N2C2CCCC2)cc1 | 7.1 | nt | i | 0.99 | nt | nt | 101.6
O=C(CCCc1cccs1)N1CCN(S(=O)(=O)c2ccccc2Br)CC1 | 10.0 | -3.9 | nt | nt | -36.4 | 101.5 | 95.1
Nc1ccc(NC(=O)c2cccs2)c(Cl)c1 | -0.3 | -0.5 | i | 1 | -100.0 | 146.6 | 98.9
Cc1c(NC(=O)COC(=O)CCC(=O)c2ccc(Cl)cc2)c(=O)n(-c2ccccc2)n1C | -5.8 | nt | i | 1.03 | -8.3 | 156.1 | 97.3
O=C(CCCOc1ccccc1)Nc1ncccn1 | -10.2 | -1.2 | nt | nt | 38.5 | 110.6 | 109.7
COc1ccc(Br)cc1C(C[N+](=O)[O-])c1c(N)n(C)c(=O)n(C)c1=O (stereo unspecified) | nt | nt | i | 0.69 | nt | nt | 96.2
CCOC(=O)C1CCN(C(=O)Cc2cccs2)CC1 | 2.1 | -2.4 | i | 0.95 | -6.9 | 129.7 | 103.1
O=C(O)Cc1ccc(S(=O)(=O)Nc2ccccc2C(=O)O)cc1 | -2.0 | nt | i | 1.1 | nt | nt | 97.3
COc1ccc(C(C(=O)NC2CCCCC2)N(C(=O)CCl)c2cccc(Cl)c2)cc1 (stereo unspecified) | 2.2 | -0.4 | i | 0.75 | nt | nt | 105.4
Cc1ncoc1C(=O)Nc1ccc2c(c1)OCCO2 | 3.9 | -0.2 | i | 1 | 28.6 | 155.2 | 96.9
CCCc1ccc(OCc2ccc(C(=O)N/N=C/c3cccc([N+](=O)[O-])c3)o2)c(OC)c1 | 1.4 | 0.1 | i | 0.68 | -15.6 | 109.7 | 101.4
COc1cc(C(=O)Nc2ccc(-c3nnc(-c4ccco4)o3)cc2)cc(OC)c1OC | -6.8 | -1.6 | i | 0.99 | -7.7 | 56.2 | 104.2
